# H5N1 antiviral = MDCK cell protection from H5N1 avian flu. cytopathic effect, luminescence, 72 h; stronger effect = higher value; no value below 0 was filed and about half of the inactive calls have no number; reference of the scale not given here. AID 740, 2007. inhibition, % at 50 µM. hit rate 0.07% among 96,000; in the data active means inhibition above about 25%
# The depositor's hits bear a star; i = inactive.
structure	H5N1 antiviral
Cc1cccc(-n2c(N)cc(=O)nc2SCC(=O)Nc2cc(C)on2)c1	0.1
C=CCn1c(SCC(=O)NC(=O)NCC(C)C)nnc1C1CCCCC1	0.7
CCOC(=O)c1ccc(NC(=O)CCNS(=O)(=O)c2ccc3c(c2)oc(=O)n3C)cc1	i
COc1ccccc1-c1nc2n(n1)C(c1cccs1)C(C(=O)Nc1cccnc1)=C(C)N2 (stereo not drawn)	i
CCc1ccc(N(CC(=O)NC2CCCC2)S(=O)(=O)c2c(C)noc2C)cc1	1.3
O=C(c1cccnc1)N1CCN(c2c(Cl)cccc2[N+](=O)[O-])CC1	1.2
Oc1ccccc1N=Cc1ccc[nH]1	i
CCCCCOc1ccc2oc(=O)c3c(c2c1)CCCN3C(=O)CN1CCCC(C(=O)OCC)C1 (stereo not drawn)	i
CCOc1cc(OCC)cc(C(=O)O)c1	1.1
CCOC(=O)Nc1cc(C(=O)OC)cc(C(=O)OC)c1	i
COc1ccccc1-c1c(C)oc2c(CN3CCN(CCO)CC3)c(O)ccc2c1=O	0.1
CC(C)Sc1nc(-c2ccccc2)cc(=O)[nH]1	0.2
Cc1ccc(C)c(NC(=O)C2CCC(C)(C(=O)O)C2(C)C)c1 (stereo not drawn)	0.3
CSC1=N/C(=C\c2cccc(F)c2)C(=O)S1	i
O=C(CSc1nnc(Cn2c(=O)sc3ccccc32)n1CCc1ccccc1)N1CCOCC1	i
CCN(CC)S(=O)(=O)c1ccc(C(=O)OCCN2C(=O)CCC2=O)cc1	0.1
C=CCN1N=C(c2ccc(Cl)s2)CSC1=O	i
CCCCNC(=O)c1ccc(NC(=O)C2CCCO2)cc1 (stereo not drawn)	1.6
O=C(/C=C\Nc1ccccn1)c1ccc(Cl)cc1	i
N/C(=N\OC(=O)Cc1ccc(Cl)cc1)c1cccnc1	i
CC(=O)Cn1cnc2sc(-c3ccccc3)cc2c1=O	0.0
CCC(C)Oc1cccc(C(=O)Nc2ccccc2N2CCOCC2)c1 (stereo not drawn)	i
COC(=O)c1cn(NC(=O)c2ccc(F)cc2)c(=O)c2ccccc12	0.4
CC(Cc1ccccc1)NC(=O)CSc1nc2nc3c(cc2c(=O)n1-c1ccccc1)COC(C)(C)C3 (stereo not drawn)	0.3
CC(C)(C)c1cc(C(F)(F)F)nc(SCCCNC(=O)c2ccco2)n1	i
CCCn1c(=O)c2ccccc2n2c(SCCOc3ccc(OC)cc3)nnc12	1.9
Oc1c(C(Nc2ccccn2)c2ccccn2)ccc2cccnc12 (stereo not drawn)	i
O=C(CSc1nnc(-c2ccccc2)n1-c1ccccc1)N1c2ccccc2Sc2ccccc21	1.0
O=C(NCCCN1CCN(Cc2ccccc2)CC1)C1CCN(c2nnc(-n3cccc3)s2)CC1	i
COC(=O)c1ccc(CN(c2ccccc2OC)S(=O)(=O)c2cccs2)o1	0.5
CCNc1nc(NC(C)(C)C)nc(N(CC)n2cnnc2)n1	i
CCCSc1nnc(NC(=O)c2sc3nc(-c4cccs4)ccc3c2N)s1	1.7
COc1cccc2c(=O)n(CC(=O)NC3CCCCC3)ccc12	0.8
CCOc1ccc(CCNC(=O)c2cccnc2N2CCCC2)cc1OCC	i
O=C(COC(=O)c1c[nH]c(=O)[nH]c1=O)NCc1ccccc1	i
O=C(CSc1nnc(-c2cccnc2)n1Cc1ccco1)N1CCc2ccccc21	1.1

# A different layout for some results above:
CC(Cc1ccccc1)NC(=O)CSc1nc2nc3c(cc2c(=O)n1-c1ccccc1)COC(C)(C)C3 (stereo not drawn)
- H5N1 antiviral = 0.3
CC(C)(C)c1cc(C(F)(F)F)nc(SCCCNC(=O)c2ccco2)n1
- H5N1 antiviral = i
CCCn1c(=O)c2ccccc2n2c(SCCOc3ccc(OC)cc3)nnc12
- H5N1 antiviral = 1.9
Oc1c(C(Nc2ccccn2)c2ccccn2)ccc2cccnc12 (stereo not drawn)
- H5N1 antiviral = i

# Remaining list, next part
structure	H5N1 antiviral
Cc1cc(N2CCC(N(C)C3CCCC3)CC2)nc2cc(O)ccc12	i
O=C(Nc1ccc2c(c1)nc1n2CCSC1)c1ccco1	1.5
c1cncc(-c2nn3c(Cn4cnc5ccccc54)nnc3s2)c1	1.3
O=C(NCCc1ccc(Cl)cc1)C1CCN(S(=O)(=O)c2cccs2)CC1	3.2
Cc1cccc(OCCCC(=O)NCc2ccco2)c1	0.6
COc1nc(Nc2ccc(O)cc2)nc(OC(C(F)(F)F)C(F)(F)F)n1	i
CCC1CCCCN1C(=O)CSc1nnc(-c2cccs2)o1 (stereo not drawn)	i
O=C1NC(=O)[C@@H]2C3c4ccccc4C=CN3[C@H](C(=O)c3cccs3)[C@H]12 (stereo partly drawn)	2.3
CCOc1ccccc1-c1nc(SCC(=O)O)n[nH]1	i
CC(C)CCNC(=O)CSc1nc2ccccc2c(=O)[nH]1	i
CC(C)Cn1c(CCCNC(=O)c2ccc(F)cc2)nc2ccccc21	0.7
CC(=O)c1cccc(NC(=O)C2CC(=O)N(c3cccc(C)c3C)C2)c1 (stereo not drawn)	i
COc1ccc(/C(N)=N/OC(=O)CSc2ccc(C)cc2)cc1	i
Cn1c(=NC(=O)CSCC(=O)N2CCOCC2)sc2ccccc21	0.2
COC(=O)c1c(C#N)c(N)nc2c1CCCC2	i
O=c1cc(O)c(-c2cccc(Cl)c2)c(Cl)[nH]1	i
CC(C)CCOCC(=O)Oc1ccccc1C(=O)O	0.1
CC1=CC(C)(C)N2C(=O)C3(C(C#N)=C(N)Oc4cc(O)ccc43)c3c(C)c(C)cc1c32 (stereo not drawn)	i
COc1ccc(C(=O)NC(C)c2nnc(SCC(=O)Nc3nc(C)cs3)n2C)cc1 (stereo not drawn)	0.7
O=C1CC(c2cccc(Cl)c2)CC(O)=C1C=NCCCO (stereo not drawn)	1.6
CC(=C1C(=O)c2ccccc2C1=O)N1CCN(c2ccccn2)CC1	i
CS(=O)(=O)Nc1ccc(C(=O)NCCSC2CCCCC2)cc1	i
CCn1c(C)c(C)c2cc(C(=O)Nc3cccc(Cl)c3)ccc21	2.5
CC(NC(=O)C1CCCCC1)c1ccc2c(c1)OCCO2 (stereo not drawn)	0.0

# A draw from above in order of count of non-hydrogen atoms, low to high:
structure	H5N1 antiviral
Oc1ccccc1N=Cc1ccc[nH]1	i
COC(=O)c1c(C#N)c(N)nc2c1CCCC2	i
CCCSc1nnc(NC(=O)c2sc3nc(-c4cccs4)ccc3c2N)s1	1.7

# Following part:
structure	H5N1 antiviral
COc1ccc(O)c(C2=Nc3ccccc3N=C(c3ccco3)C2)c1	0.3
C(=N\Nc1nc(-c2ccccc2)cs1)/c1cccs1	0.8
COc1ccc(CNC(=O)CN2CCC(C(=O)c3ccc(OC)cc3)CC2)cc1	i
COc1ccc(CCNS(=O)(=O)c2cccs2)cc1	0.2
CCCc1nnc(NC(=O)CSc2ncn[nH]2)s1	0.5
CC1(C)COC(Nc2ccc(Cl)cc2)=N1	i
CC(C)(C)NC(=O)C1CC(=O)OC12CCCCC2 (stereo not drawn)	0.2
Cc1cc(C)cc(OCC(=O)OCC(=O)c2c(N)n(C)c(=O)n(C)c2=O)c1	1.5
CCCCN(Cc1cc2ccccc2[nH]c1=O)C(=O)c1ccccn1	i
Cc1ncoc1C(=O)Nc1ccccc1C(N)=O	0.3
CCOC(=O)C1CCN(Cc2cnc(Oc3ccc(OC)cc3)s2)CC1	0.2
c1ccc2cc(-c3cc4ccccn4c3)ccc2c1	i
CCC(C)(C)NC(=O)CN(Cc1cccs1)C(=O)CNS(=O)(=O)c1ccc(C)cc1	0.2
O=C(Cn1cccc1)N1CCc2ccccc21	i
COc1ccccc1-c1cc(C(F)(F)F)nc(S(C)(=O)=O)n1	0.7
Cc1ccc(C)c(N(C(=O)Cn2nnc3ccccc32)C(C(=O)NC(C)(C)C)c2ccsc2)c1 (stereo not drawn)	i
Cc1cc(C)cc(-n2c(O)c(C=NC3CCS(=O)(=O)C3)c3ccccc3c2=O)c1 (stereo not drawn)	i
Cc1cc2c(c(=O)o1)C(CC(C)C)C(C#N)=C(N)O2 (stereo not drawn)	i
CCC1(C)Cc2c(sc3[nH]c(=O)[nH]c(=O)c23)CS1 (stereo not drawn)	i
CCOC(=O)C1CCN(c2c(N3CCCC(C(=O)OCC)C3)c(=O)c2=O)CC1 (stereo not drawn)	1.6
O=C1c2ccccc2C(=O)N1Cc1nc2ccccc2c(=O)n1CCCN1CCOCC1	i
CS(=O)(=O)N(CC(=O)Nc1ccc2c(c1)OCCO2)Cc1ccccc1	i
c1ccc(N2CCN(c3nc(-c4ccccn4)nc4ccccc34)CC2)cc1	2.6
COc1ccc(CCNC(=O)CNCC2CCCO2)cc1OC (stereo not drawn)	i
Cc1cc(C)c2[nH]c(=O)c(C(c3nnnn3CC3CCCO3)N3CCCC(C)C3)cc2c1 (stereo not drawn)	0.1
CCN(CC)c1ccc2c(Cl)cc(=O)oc2c1	4.5
Cc1ccc(-c2nnn(CC(=O)N(CC(=O)NCC3CCCO3)c3ccccc3)n2)o1 (stereo not drawn)	0.5
N#CC1=C(SCc2ccccc2)NC2=C(C(=O)CCC2)C1c1ccc2c(c1)OCO2 (stereo not drawn)	i
CCC(C)(CC(=O)N(C)CCC#N)c1ccccc1 (stereo not drawn)	0.7
CC(C)(C)n1nnnc1C(c1cccs1)N(Cc1ccc(Cl)cc1)CC1CCCO1 (stereo not drawn)	0.1
COc1ccc(Cl)cc1S(=O)(=O)Nc1cccc(C(=O)O)c1	i
CC(=O)N(c1ccc(N(C(C)=O)S(=O)(=O)c2cccs2)cc1)S(=O)(=O)c1cccs1	1.1
Cc1ccc(-c2nnc(SCC#CCOC(=O)c3ccco3)o2)cc1	i
COc1ccc(N2CCN(C(CNS(=O)(=O)c3cccs3)c3cccnc3)CC2)cc1 (stereo not drawn)	1.3
C=CCNc1nc(-c2cccc(OC)c2O)nc2ccccc12	i
Cc1nc2c(n1C1CCCCC1)C(=O)c1ccccc1C2=O	2.1
CCOc1ccc(C/C(N)=N/n2cnnc2)cc1	1.6
O=C(CN(CCO)c1ccccc1)NC12CC3CC(CC(C3)C1)C2	i
CCOC(=O)c1[nH]c(C)c(CN(Cc2ccco2)C(=O)C(F)(F)F)c1C	0.6
COc1ccc(C(=O)n2c(SC)nc3cc4c(cc32)OCCO4)cc1	3.5
CC(/C=C/c1ccccc1)=N/NC(=O)CNC(=O)c1ccc2c(c1)OCO2	0.4
CC(C)C(CO)NC(=O)CC(=O)NC(CO)C(C)C (stereo not drawn)	0.2
CC(C)Oc1ccc(C(=O)N(Cc2ccco2)C2CCS(=O)(=O)C2)cc1 (stereo not drawn)	i
COCCNC(=O)c1ccc(Cl)c(Cl)c1	0.0
CC(=O)Nc1cc(C(=O)N2CCC3(CC2)OCCO3)ccc1S(=O)(=O)c1ccc(C)cc1	2.2
COc1cccc(N2CCN(Cc3cccnc3)CC2)c1	0.5
CCn1c(=O)c2cc(S(=O)(=O)NC3CCCCC3)ccc2n(CC)c1=O	0.1
CCOC(=O)c1cc2oc(C(c3nnnn3C3CCCCC3)N3CCOCC3)cc2[nH]1 (stereo not drawn)	1.9
C#CCOc1ccc2c(C)cc(=O)oc2c1	1.8
O=C(NCc1ccco1)C1(S(=O)(=O)c2ccc(Cl)cc2)CC1	0.3
Cc1cccc(CSc2nnnn2-c2ccccc2)c1	2.8
O=C(O)c1cc2ccccc2oc1=O	i
Cc1ccc(S(=O)(=O)n2nc(OC(=O)C(C)(C)C)cc2N)cc1	0.2
COc1cc(C(=O)Nc2oc(-c3ccccc3)c(-c3ccccc3)c2C#N)cc(OC)c1OC	7.3
CCOC(=O)CCSc1nc(C)c2ccccc2n1	i
Cc1c[nH]c2cccc(OCC(O)CNC(C)(C)C)c12 (stereo not drawn)	i
CCC(C)(C)n1nnnc1C(c1cc2ccc(OC)cc2[nH]c1=O)N1CCc2ccccc2C1 (stereo not drawn)	0.8
CCCS(=O)(=O)N1CCC(C(=O)NCCc2ccc(C)cc2)CC1	i
Nc1nc(-c2cccnc2)nc(N2CCCCC2)n1	0.5
O=C(CNc1cccc(Cl)c1)c1ccc(Cl)cc1	0.6

# Remaining list, next part
structure	H5N1 antiviral
COc1cc2c(cc1OC)CN(C(=O)CCCOc1ccc(Cl)cc1Cl)CC2	i
CCOc1ccccc1NC(=O)c1cnc2n(c1=O)CCS2	0.1
[N-]=[N+]=CC(=O)c1ccnc(C(=O)C=[N+]=[N-])c1	0.8
CCOC(=O)c1c(NC(=O)Cn2nnc(-c3ccc(Cl)cc3)n2)sc(CC)c1C	i
CCn1cc(C(=O)NCCCN2CCC(C)CC2)c2cc(OC)c(OC)cc2c1=O	0.4
CS(=O)(=O)N(CC(=O)N/N=C/c1cccc2c1OCCO2)c1ccccc1Br	i
O=C(CN(CC1CCCO1)C(=O)Cn1nnc(-c2ccc(F)cc2)n1)NC1CCCCC1 (stereo not drawn)	1.3
O=C(Cn1cc2c(n1)CCCC2)NC1CCN(Cc2ccccc2)CC1	0.1
COc1ccc(Br)cc1S(=O)(=O)N1CCN=C1C	i
O=C(NCc1ccco1)c1nc2c(nnn2Cc2cccc(Cl)c2)c(=O)[nH]1	i
CCOC(=O)c1c(C)[nH]c(C)c1C(=O)CSc1nnc(-c2ccc(OC(F)F)cc2)o1	0.2
O=C1CC(c2ccc3c(c2)OCO3)C2=C(CCCC2=O)N1 (stereo not drawn)	1.5
CCCOC(=O)c1c(NC(=O)/C=C/c2cnn(C)c2C)sc(C(=O)OCC)c1C	2.1
Cc1cc(NC(=O)c2cccc(F)c2)ncc1NC(=O)c1ccco1	i
Nn1c(Cc2cccc3ccccc23)nnc1SCC(=O)N1CC(=O)Nc2ccccc21	0.5

# Compound activity from PubChem BioAssay.

# Some of the compounds tested (hit frequency here may not be typical).
